Bioassay records: PubChem, PCMD
Biofilm kill mix: mixtures killing C. albicans biofilm; C. albicans biofilm persisters + clotrimazole, fluorescence viability; primary screen in compound mixtures of four per well; inhibition, % at 7.6 µM; 0.02% of 120,000 active;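 active means inhibition above 30.3% in the primary screen of four-compound pools, then above 30% when the compound was retested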;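 further: compounds exposed to preformed 24 h biofilms for 48 h; the number belongs to the whole pool; some results filed as inactive read as strong as hits; inactives centre near 12; 0% = biofilm with clotrimazole alone and 100% = kill control; retested singly at about 60 µM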
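Incubation: 24 h biofilm formation, then 48 h compound exposure, 37 °C | Material: C. albicans biofilms | Buffer or medium: RPMI/MOPS medium, pH 7.0 | Measured by: 2-h Alamar Blue fluorescence, 535/590 nm excitation/emission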
The depositor's hits bear a star. These rows are one share of the data; the hit share may differ from the screen's.

O=S(=O)(c1ccccc1)N(CC1CO1)c1cccc2ccccc12 (configuration not stated) was read as Biofilm kill mix 25.
For CCN(CC)S(=O)(=O)c1ccc(C)c(NC(=O)/C=C/c2cccs2)c1 the results were Biofilm kill mix 6.
Screening N#CC(c1ccccc1O)N1N=C(c2ccccc2)CC1c1ccccc1 (configuration not stated) returned Biofilm kill mix 10.
Screening Cc1nn(C)c(C)c1CNC(=O)Nc1ccc(Cl)cc1 returned Biofilm kill mix 5.
For Cc1cc(C)n(-c2nc(SCC(=O)O)c3c4c(sc3n2)COC(C)(C)C4)n1 the results were Biofilm kill mix 26.
C=CCn1c(SCc2ccc(Cl)c(Cl)c2)nnc1C(CO)NC(=O)c1ccc(OC)cc1 (configuration not stated) was read as Biofilm kill mix 24.
`COCCOC(=O)N/C=C\c1nc2ccccc2c(=O)[nH]1` gave Biofilm kill mix 17.
For COc1ccc(C(=O)N/N=C/c2ccc(OC(=O)c3cccc4ccccc34)c([N+](=O)[O-])c2)cc1 the results were Biofilm kill mix -10.
Screening COc1ccc2c(c1)CCC1C2=NN(/C(C)=C\C(C)=O)C1c1ccc(F)cc1 (configuration not stated) returned Biofilm kill mix 8.
For CC1(C)CC(=O)C(Sc2ccccc2[N+](=O)[O-])=C(O)C1 the results were Biofilm kill mix 4.
Cc1cnc([N+](=O)[O-])n1CCOC(=O)NC(=O)c1ccc(F)cc1 was read as Biofilm kill mix 9.
For CCCC1=NN(C(=O)C(=O)Nc2ccc(Br)cc2)C(O)(C(F)(F)F)C1 (configuration not stated) the results were Biofilm kill mix 3.
Screening CCNC(=O)COC(=O)CCNC(=O)c1cccc(C)c1 returned Biofilm kill mix 16.
CCCC(=O)Nc1nc2ccc(NC(=O)c3c(F)c(F)c(OC)c(F)c3F)cc2s1 was read as Biofilm kill mix 9.
`CC[C@H](C)[C@@H]1NC(=O)c2cc([N+](=O)[O-])cc(F)c2NCCCC[C@@H](C(N)=O)NC(=O)[C@H](CC(N)=O)NC1=O` gave Biofilm kill mix 12.
`CCOC(=O)C(Cc1ccccc1)c1ccnc2ncnn12` (configuration not stated) gave Biofilm kill mix 5.
For CCOP(=O)(OCC)C(Nc1cccc(C(F)(F)F)c1)c1ccc(F)cc1 (configuration not stated) the results were Biofilm kill mix 13.
`COc1cccc(OCC(O)CN2CCN(CCN3C(=O)c4cccc5cccc(c45)C3=O)CC2)c1` (configuration not stated) gave Biofilm kill mix 21.
`Cc1nc2ccccc2n1CCCOc1ccccc1` gave Biofilm kill mix 11.
Screening O=C(CC1C(=O)NCCN1CC1CCCCC1)NCCc1ccc(F)cc1 (configuration not stated) returned Biofilm kill mix 19.
Screening Cc1ccc(NC(=O)CSc2nc(C)c(C)c(C)n2)c([N+](=O)[O-])c1 returned Biofilm kill mix 8.
COC(=O)c1ccc(C(=O)OC)c(NC(=O)C(C)(C)C)c1 was read as Biofilm kill mix 15.
`Cc1cc(NC(=O)/C=C/c2ccc(Br)cc2)no1` gave Biofilm kill mix 18.
`N/C(=N\OC(=O)c1ccc(OCC(F)(F)F)nc1)c1ccc(Cl)cc1` gave Biofilm kill mix 15.
Screening CCOc1ccc(NC(=O)NC(=O)N(C)S(=O)(=O)c2ccc(C)cc2)cc1 returned Biofilm kill mix 10.
`COc1ccc(N2C(=O)c3ccccc3NC2c2cccnc2)cc1` (configuration not stated) gave Biofilm kill mix 5.
`Cc1nc2ccccc2c(=O)n1NC(=O)Cc1ccc([N+](=O)[O-])cc1` gave Biofilm kill mix 5.
Screening O=C(N/N=C\c1cc(Br)ccc1O)c1ccc(S(=O)(=O)N2CCCCC2)cc1 returned Biofilm kill mix 7.
Screening Nc1nc(C23CC4CC(CC(Cl)(C4)C2)C3)cs1 returned Biofilm kill mix 18.
For CCNC(=S)N(Cc1ccco1)Cc1cc2cc(OCC)ccc2[nH]c1=O the results were Biofilm kill mix 16.
Screening Cc1ccc(S(=O)(=O)Nc2nccs2)cc1[N+](=O)[O-] returned Biofilm kill mix 8.
CSc1ccc(NC(=O)Nc2cccn(Cc3ccccc3F)c2=O)cc1 was read as Biofilm kill mix 16.
`CC(NC(=O)CCCCCCN1C(=O)c2ccccc2C1=O)c1ccc2c(c1)CCCC2` (configuration not stated) gave Biofilm kill mix 11.
`NC1=NC(=O)C(Cc2cccc(Cl)c2Cl)S1` (configuration not stated) gave Biofilm kill mix -6.
Screening Cn1cc(Br)c(C(=O)NC(=S)Nc2ccc(S(N)(=O)=O)cc2)n1 returned Biofilm kill mix 2.
`O=C(CO/N=C/c1ccccc1O)NNC(=O)c1ccccc1Cl` gave Biofilm kill mix 15.

Arranged by length of the SMILES (smallest number first): 14 of the compounds above.
`Cc1nc2ccccc2n1CCCOc1ccccc1` gave Biofilm kill mix 11.
`NC1=NC(=O)C(Cc2cccc(Cl)c2Cl)S1` (configuration not stated) gave Biofilm kill mix -6.
`Cc1cc(NC(=O)/C=C/c2ccc(Br)cc2)no1` gave Biofilm kill mix 18.
Screening Nc1nc(C23CC4CC(CC(Cl)(C4)C2)C3)cs1 returned Biofilm kill mix 18.
`O=C(CO/N=C/c1ccccc1O)NNC(=O)c1ccccc1Cl` gave Biofilm kill mix 15.
COC(=O)c1ccc(C(=O)OC)c(NC(=O)C(C)(C)C)c1 was read as Biofilm kill mix 15.
Screening O=C(CC1C(=O)NCCN1CC1CCCCC1)NCCc1ccc(F)cc1 (configuration not stated) returned Biofilm kill mix 19.
For CCNC(=S)N(Cc1ccco1)Cc1cc2cc(OCC)ccc2[nH]c1=O the results were Biofilm kill mix 16.
For CCOP(=O)(OCC)C(Nc1cccc(C(F)(F)F)c1)c1ccc(F)cc1 (configuration not stated) the results were Biofilm kill mix 13.
`Cc1nc2ccccc2c(=O)n1NC(=O)Cc1ccc([N+](=O)[O-])cc1` gave Biofilm kill mix 5.
Screening CCOc1ccc(NC(=O)NC(=O)N(C)S(=O)(=O)c2ccc(C)cc2)cc1 returned Biofilm kill mix 10.
Screening Cc1ccc(NC(=O)CSc2nc(C)c(C)c(C)n2)c([N+](=O)[O-])c1 returned Biofilm kill mix 8.
Screening O=C(N/N=C\c1cc(Br)ccc1O)c1ccc(S(=O)(=O)N2CCCCC2)cc1 returned Biofilm kill mix 7.
`COc1cccc(OCC(O)CN2CCN(CCN3C(=O)c4cccc5cccc(c45)C3=O)CC2)c1` (configuration not stated) gave Biofilm kill mix 21.

In the list so far, two have a thiophene ring, fused or not.
For CCN(CC)S(=O)(=O)c1ccc(C)c(NC(=O)/C=C/c2cccs2)c1 the results were Biofilm kill mix 6.
For Cc1cc(C)n(-c2nc(SCC(=O)O)c3c4c(sc3n2)COC(C)(C)C4)n1 the results were Biofilm kill mix 26.

Continued:
`CCOC(=O)Cc1cnc(NC(=O)CSc2nc(C)c(CC)c(=O)[nH]2)s1` gave Biofilm kill mix 16.
COc1cc(C(=O)NCCCc2nc3ccccc3n2Cc2cc(C)ccc2C)cc(OC)c1OC was read as Biofilm kill mix 5.
CCN(CC)CC(O)Cn1c(-c2cccc(Cl)c2)nc2cc(C)c(C)cc21 (configuration not stated) was read as Biofilm kill mix 42.
CCc1nccn1C(=O)c1cnn2c(C(F)F)cc(-c3ccc(C)cc3)nc12 was read as Biofilm kill mix 19.
For CCN1CCCC1CNC(=O)c1ccc(Sc2ccc(F)cc2)c([N+](=O)[O-])c1 (configuration not stated) the results were Biofilm kill mix 1.
`C/C(=N/OCC(=O)NCCCCCCNC(=O)CO/N=C(/C)c1cccs1)c1cccs1` gave Biofilm kill mix 6.
For CN(C(=O)CCl)C1CCCc2ccccc21 (configuration not stated) the results were Biofilm kill mix 20.
For O=C(Cn1nnc2ccccc2c1=O)N[C@@H](Cc1ccccc1)C(=O)O the results were Biofilm kill mix 22.
`COc1cccc(N/C(SCc2cccc([N+](=O)[O-])c2)=C(/C#N)C(N)=O)c1` gave Biofilm kill mix 7.
Screening O=C(Nc1ccccc1O)c1cccc(S(=O)(=O)N2CCOCC2)c1 returned Biofilm kill mix 23.
Screening O=C(NC1CCCC1)C(=O)N(Cc1cccnc1)C(C(=O)NC1CCCC1)c1ccco1 (configuration not stated) returned Biofilm kill mix 7.
`CCCC(=O)Nc1c2c(nc3ccccc13)N(c1ccccc1)CC2` gave Biofilm kill mix 9.
`CC(NC(=O)/C(C#N)=C/c1cn(-c2ccccc2)nc1-c1ccc(F)cc1)c1ccccc1` (configuration not stated) gave Biofilm kill mix 19.
Screening COc1ccc(OCc2n(CC(=O)OC3CC(C)CCC3C(C)C)c3ccccc3[n+]2C)cc1 (configuration not stated) returned Biofilm kill mix 23.
Screening COc1nccc(C(F)(F)F)c1C(=O)Nc1ccc(Cl)cc1 returned Biofilm kill mix 22.
CC(=O)Nc1nc(-c2ccc3c(c2)OCO3)cs1 was read as Biofilm kill mix 14.
`S=C(NCc1ccccn1)Nc1ccc(Br)cc1Cl` gave Biofilm kill mix 17.
Screening Cc1ccc(OCCNc2ccc(C(F)(F)F)cc2[N+](=O)[O-])cc1 returned Biofilm kill mix 18.
For CC(=O)NCCC1CCN(c2nc3nonc3nc2N(C)Cc2ccccc2)CC1 the results were Biofilm kill mix 21.
Screening CCOc1nc(-c2ccc(Cl)cc2)nc2ccccc12 returned Biofilm kill mix 11.
`C/C(=N\Nc1ccc2nncn2n1)c1ccc(Cl)s1` gave Biofilm kill mix 18.
`CCOc1ccc(OCCn2ccnc2)cc1` gave Biofilm kill mix 12.
Screening Cc1cc(S(=O)(=O)NC2CCCCC2)ccc1-n1cnnn1 returned Biofilm kill mix 0.
For Cc1cc(=O)[nH]c(N/N=C/C(C)c2ccccc2)n1 (configuration not stated) the results were Biofilm kill mix 16.
`Cc1cccc(NC(=O)c2cc3c([nH]c4ccccc43)c(C)n2)c1C` gave Biofilm kill mix 4.
`COc1ccccc1N1CCN(/N=C/c2cccc(OC)c2O)CC1` gave Biofilm kill mix 4.
`CC(C)c1ccccc1-n1cc[nH]c1=S` gave Biofilm kill mix 16.
`O=c1oc(-c2cccs2)nc2ccc(Cl)cc12` gave Biofilm kill mix 23.
Screening Cc1nc(NC(=O)C2CCCCC2)sc1C returned Biofilm kill mix 19.
CCCNC(=O)CC(NS(=O)(=O)c1ccc(NC(C)=O)cc1)C(C)C (configuration not stated) was read as Biofilm kill mix -7.
`Cc1ccc(NC(c2ccccc2)c2nc3ccccc3[nH]c2=O)cc1` (configuration not stated) gave Biofilm kill mix 21.
`COc1ccc(CCNC(=O)C23CCC(C)(C(=O)C2=O)C3(C)C)cc1OC` (configuration not stated) gave Biofilm kill mix 2.
O=C(CCNC(=O)c1ccc([N+](=O)[O-])cc1)Nc1ccccc1N1CCOCC1 was read as Biofilm kill mix -7.
Screening Cc1ccc(S(=O)(=O)N(C)C)cc1NC(=O)C(C)OC(=O)/C=C/c1cccs1 (configuration not stated) returned Biofilm kill mix 7.
Cc1cccc(-c2nc(Nc3ccc(N4CCOCC4)cc3)c3ccccc3n2)c1 was read as Biofilm kill mix 7.
Screening Cc1ccsc1C(=O)OCC(=O)N1CCc2ccccc2C1 returned Biofilm kill mix 17.
CCCCn1cnc2c(sc3nc4c(cc32)CSC(C)(C)C4)c1=O was read as Biofilm kill mix 19.
Cc1ccc(OCCN2CCN(c3nc(NCc4ccco4)c4ccccc4n3)CC2)cc1 was read as Biofilm kill mix 23.
Screening CN(CCc1ccccn1)C(=O)CCC1CCCN(C(=O)c2n[nH]c3c2CCCC3)C1 (configuration not stated) returned Biofilm kill mix 13.
`O=C(CCC(=O)Nc1ccccc1Cl)N/N=C1\CCCc2ccccc21` gave Biofilm kill mix 6.
Screening O=[N+]([O-])c1cccc(S(=O)(=O)N/N=C/c2ccc(O)cc2)c1 returned Biofilm kill mix 15.
For O=C(CCc1nnc(CCCCc2ccccc2)o1)NCCn1cccn1 the results were Biofilm kill mix 11.
For CCNc1nc(=S)nc(NC(C)C)[nH]1 the results were Biofilm kill mix 3.
For Cc1ccc(C)c(NC(=O)C(NCC(C)(C)N2CCOCC2)c2ccccc2)c1 (configuration not stated) the results were Biofilm kill mix 11.
Screening CCOC(=O)C1=NN(C(C)=O)C2(CC(=O)N(c3ccc(C)c(C)c3)C2=O)C1 (configuration not stated) returned Biofilm kill mix 22.
For COc1ccc(S(=O)(=O)N2CCCCCC2)cc1Br the results were Biofilm kill mix 24.
Screening Cc1cc(C)c(C#N)c(SCc2c(F)cccc2[N+](=O)[O-])n1 returned Biofilm kill mix 17.
`COC(=O)C1C(O)=C(C=Nc2ccc3ccccc3c2)C(=O)CC1(C)C` (configuration not stated) gave Biofilm kill mix 10.
For O=C(NNc1nc2ccccc2s1)Nc1ccc(Cl)c(Cl)c1 the results were Biofilm kill mix 31.
COc1ccccc1/C(O)=C(\C#N)c1nc2ccccc2[nH]1 was read as Biofilm kill mix 14.
`Cc1occc1C(=O)NNC(=O)c1nn(C)c(=O)c2ccccc12` gave Biofilm kill mix 4.
CCOc1ccc(NC(=O)CC2C(=O)N(c3cccc(OC)c3)C(=O)N2CCOC)cc1 (configuration not stated) was read as Biofilm kill mix 15.
COc1cc(O)c(C(CC(=O)N2CCN(c3ccccc3)CC2)c2cc(OC)c(OC)c(OC)c2)c(OC)c1 (configuration not stated) was read as Biofilm kill mix 20.
For COc1ccccc1NC(=S)NNC(=O)c1nn(C)c(C)c1Br the results were Biofilm kill mix 18.
`CSc1ccc(-c2ccco2)nn1` gave Biofilm kill mix 20.
Cc1nn(C)c(C)c1NC(=O)CC12CC3CC(CC(C3)C1)C2 was read as Biofilm kill mix 18.
`COc1cccc(C(=O)N2CCN(C3CCN(Cc4ccccc4)CC3)CC2)c1OC` gave Biofilm kill mix 11.
`COC(=O)[C@H](Cc1ccccc1)NC(=O)O[C@H]1C(=O)c2ccc(OC)cc2O[C@@H]1c1ccc2c(c1)OCO2` gave Biofilm kill mix 19.
OCCNCc1ccc(OCc2ccc(Cl)cc2Cl)cc1 was read as Biofilm kill mix 21.
